PV pol inh: poliovirus RNA polymerase inhibition. 150,000 tested, 0.66% active. P03300. poliovirus polymerase elongation, fluorescence polarization; active compounds read low. % elongation, % (compound at 16.7 µg/mL); in the data active = % elongation below about 90%; note: some results filed as inactive read as strong as hits
Target sequence (P03300 1749-2209 limits assumed): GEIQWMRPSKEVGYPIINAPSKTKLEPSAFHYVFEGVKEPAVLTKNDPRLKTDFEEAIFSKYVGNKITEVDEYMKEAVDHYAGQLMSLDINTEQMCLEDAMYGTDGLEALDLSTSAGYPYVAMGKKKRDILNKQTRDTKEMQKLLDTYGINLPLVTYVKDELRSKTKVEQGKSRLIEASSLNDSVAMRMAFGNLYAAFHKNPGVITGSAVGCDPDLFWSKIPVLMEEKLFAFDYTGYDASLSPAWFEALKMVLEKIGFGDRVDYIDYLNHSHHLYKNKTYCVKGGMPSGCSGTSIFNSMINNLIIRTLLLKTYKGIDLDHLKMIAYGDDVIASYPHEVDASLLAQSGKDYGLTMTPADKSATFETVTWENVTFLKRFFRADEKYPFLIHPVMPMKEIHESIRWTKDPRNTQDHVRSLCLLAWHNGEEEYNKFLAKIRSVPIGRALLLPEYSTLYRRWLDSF
MbtI inh: blocks the Mycobacterium tuberculosis siderophore enzyme MbtI; P9WFX0; AID 493033; inhibition, %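 (about 17 µg/mL by stock and volumes)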; purified MbtI enzyme, fluorescence intensity read-out; 100,000 tested, 0.89% active;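 active = above 50% in both replicates, above 80% if mildly self-fluorescent; inactive = the rest, strongly fluorescent compounds included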;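 note: 0% = mean of negative and 100% = mean of positive controls; one replicate is shown; some compounds called inactive have numbers as strong as hits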
Target sequence (P9WFX0 whole entry, looked up): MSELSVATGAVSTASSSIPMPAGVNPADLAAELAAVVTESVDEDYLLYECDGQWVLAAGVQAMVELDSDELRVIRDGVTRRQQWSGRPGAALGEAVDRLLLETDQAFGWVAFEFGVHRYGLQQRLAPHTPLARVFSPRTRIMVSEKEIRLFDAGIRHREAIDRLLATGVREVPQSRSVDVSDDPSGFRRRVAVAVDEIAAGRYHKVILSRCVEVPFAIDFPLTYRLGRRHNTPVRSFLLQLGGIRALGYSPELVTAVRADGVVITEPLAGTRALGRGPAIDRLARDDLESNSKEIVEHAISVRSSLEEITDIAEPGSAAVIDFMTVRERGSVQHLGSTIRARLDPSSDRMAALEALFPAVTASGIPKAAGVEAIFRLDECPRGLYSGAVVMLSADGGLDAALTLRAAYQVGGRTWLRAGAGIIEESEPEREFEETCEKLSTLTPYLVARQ
MenB inh: Mtb MenB enzyme inhibition; MenB enzyme assay, absorbance read-out; some hits fall short of the stated cut; inhibition, %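 (about 12 µg/mL by stock and volumes)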; 100,000 tested, 0.43% active;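 active = mean of two replicates above 30%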;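 note: 0% = no compound and 100% = wells with inactive enzyme; the first replicate is given; strong numbers were not always called active; inactives centre near -10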
PV pol inh intensity: recorded beside PV pol inh, whose call it bears; % elongation; measured here: total intensity read-out; formula for this scale not given here;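 total fluorescence in place of polarization; lower means less elongation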
The depositor's hits bear a star.

For N#CC1=C(N)OC2=C(C(=O)CCC2)C1c1cc2cc3c(cc2nc1Cl)OCO3 (stereo not drawn) the results were PV pol inh 100.0, MbtI inh 2.2, MenB inh 0.0 and PV pol inh intensity 103.0.
For COc1cccc(/C=C/C(=O)NC2=NCCS2)c1 the results were PV pol inh 99.0, MbtI inh -4.4, MenB inh -4.3 and PV pol inh intensity 108.0.
Cn1cc(C(=O)NCCc2ccccc2)c(=O)c2cc(S(=O)(=O)N3CCCC3)ccc21 was read as PV pol inh 99.0, MbtI inh 36.5, MenB inh -4.0 and PV pol inh intensity 105.0.
COc1ccc(S(=O)(=O)N2CC(O)CC2C(=O)OCc2nc3sc(C)c(C)c3c(=O)[nH]2)cc1 (stereo not drawn) was read as PV pol inh 109.0, MbtI inh 10.1, MenB inh -9.9 and PV pol inh intensity 116.0.
Screening COc1ccc(CN(C)C(=O)c2ccc(=O)[nH]c2)cc1 returned PV pol inh 94.0, MbtI inh -4.5, MenB inh -14.9 and PV pol inh intensity 104.0.
`c1ccc(-n2nnnc2SSc2nnnn2-c2ccccc2)cc1` gave PV pol inh 98.0, MbtI inh 58.9*, MenB inh -24.4 and PV pol inh intensity 97.0.
Screening CN1CCC(N(C)C(=S)NCCc2ccccc2)CC1 returned PV pol inh 101.0, MbtI inh -6.3, MenB inh -29.0 and PV pol inh intensity 101.0.
For Cc1nc(C(F)(F)F)ccc1C(=O)NCC(O)c1ccccc1 (stereo not drawn) the results were PV pol inh 88.0*, MbtI inh -14.6, MenB inh -2.2 and PV pol inh intensity 91.0*.
For CCSc1nc(-c2ccccc2)nc2c1CCCC2 the results were PV pol inh 102.0, MbtI inh -1.4, MenB inh -7.2 and PV pol inh intensity 98.0.
`O=C(CSC1CCCC1)Nc1ccc(N2CCOCC2)cc1` gave PV pol inh 104.0, MbtI inh 6.8, MenB inh 8.7 and PV pol inh intensity 99.0.
Screening CCOC(=O)c1sc(-c2ccc(C)cc2)c(C#N)c1C returned PV pol inh 100.0, MbtI inh 79.7, MenB inh -53.6 and PV pol inh intensity 95.0.
`Clc1ccc(CO/N=C(\Cn2ccnc2)c2ccc(Cl)cc2Cl)c(Cl)c1` gave PV pol inh 98.0, MbtI inh -13.9, MenB inh -1.4 and PV pol inh intensity 105.0.
Screening CC(=O)N(CN1C(=O)c2ccccc2C1=O)c1ccccc1C returned PV pol inh 102.0, MenB inh -8.3 and PV pol inh intensity 108.0.
O=C1C2CC=CCC2C(=O)N1Cc1ccccc1 (stereo not drawn) was read as PV pol inh 104.0, MbtI inh -2.5, MenB inh 0.1 and PV pol inh intensity 106.0.
For CN1c2ccsc2C(=O)/C(=C/Nc2cccnc2)S1(=O)=O the results were PV pol inh 100.0, MbtI inh -2.0, MenB inh -16.8 and PV pol inh intensity 102.0.

Next part; it opens with the 2 that closed the last part.
O=C1C2CC=CCC2C(=O)N1Cc1ccccc1 (stereo not drawn) was read as PV pol inh 104.0, MbtI inh -2.5, MenB inh 0.1 and PV pol inh intensity 106.0.
For CN1c2ccsc2C(=O)/C(=C/Nc2cccnc2)S1(=O)=O the results were PV pol inh 100.0, MbtI inh -2.0, MenB inh -16.8 and PV pol inh intensity 102.0.
Screening Cn1cc(/C=C(\C#N)C(=O)OC2CCCCC2)c2ccccc21 returned PV pol inh 103.0, MbtI inh 2.5, MenB inh -72.4 and PV pol inh intensity 102.0.
`Cc1cc(NC=C(C#N)C#N)no1` gave PV pol inh 105.0, MbtI inh 25.0, MenB inh -34.5 and PV pol inh intensity 107.0.
CCOC(=O)c1cc2c(=O)n(C)c3ccccc3c2s1 was read as PV pol inh 102.0, MbtI inh -0.9, MenB inh 4.1 and PV pol inh intensity 103.0.
`O=C(CSc1nncn1-c1ccccc1)Nc1ccccc1C(=O)Nc1ccc2c(c1)OCO2` gave PV pol inh 103.0, MbtI inh 67.7, MenB inh -38.2 and PV pol inh intensity 108.0.
`O=C(COCC(=O)N1CCc2ccccc2C1)N1CCc2ccccc2C1` gave PV pol inh 103.0, MbtI inh -3.4 and PV pol inh intensity 103.0.
`c1ccc2c(c1)oc1c(NCC3CCCO3)ncnc12` (stereo not drawn) gave PV pol inh 103.0, MbtI inh 3.3, MenB inh -24.8 and PV pol inh intensity 97.0.
For C[C@]12CCC(=O)C=C1C=CC1C2CC[C@@]2(C)C1CC[C@@]2(O)CCC(=O)O (stereo partly drawn) the results were PV pol inh 100.0, MbtI inh 1.6, MenB inh -8.2 and PV pol inh intensity 100.0.
`COc1ccc(-c2ncnc(C(F)(F)F)c2-c2cscn2)c(O)c1` gave PV pol inh 109.0, MenB inh -1.9 and PV pol inh intensity 115.0.
For COc1ccccc1C(=O)NCCC(=O)NC1CCCCCC1 the results were PV pol inh 103.0, MbtI inh -11.7, MenB inh -12.4 and PV pol inh intensity 115.0.
Screening O=C1c2ccccc2C(=O)N1CCC(=O)N(C1CCCCC1)C1CCCCC1 returned PV pol inh 104.0, MbtI inh 1.2, MenB inh -14.2 and PV pol inh intensity 106.0.
For CCCc1nc(SC)ncc1C(=O)NCc1ccc(F)cc1 the results were PV pol inh 102.0, MbtI inh 18.5, MenB inh -2.5 and PV pol inh intensity 100.0.
Screening Cc1oc2c(F)c(F)c(F)c(F)c2c1C(=O)Oc1ccc(Br)cc1 returned PV pol inh 101.0, MbtI inh -7.8, MenB inh -13.3 and PV pol inh intensity 106.0.
CC(C)NC(=O)C1CC(c2ccc(F)cc2)=NO1 (stereo not drawn) was read as PV pol inh 104.0, MbtI inh 3.8, MenB inh 5.9 and PV pol inh intensity 102.0.
For Clc1ccc2c(-n3nnc4ccccc43)ccnc2c1 the results were PV pol inh 104.0, MbtI inh -7.5, MenB inh -21.7 and PV pol inh intensity 108.0.
S=c1[nH]nc(CSCc2cccc3ccccc23)n1C1CCCCC1 was read as PV pol inh 99.0, MbtI inh 27.2, MenB inh -37.5 and PV pol inh intensity 91.0.
Screening CCN(CC)CCC(=O)N1c2ccccc2CCc2ccc(NC(=O)OC(C)C)cc21 returned PV pol inh 100.0, MbtI inh -2.4, MenB inh -3.1 and PV pol inh intensity 104.0.
Screening Cn1cccc1Cc1nnc(SCC(=O)N2CCCCC2)n1CCc1ccccc1 returned PV pol inh 101.0, MbtI inh -11.4, MenB inh -11.5 and PV pol inh intensity 108.0.
CC1CCC2(CC1)Nc1ccccc1S2 (stereo not drawn) was read as PV pol inh 102.0, MbtI inh 4.5, MenB inh -12.3 and PV pol inh intensity 103.0.
For Cc1ccc2cc(C(F)(F)F)ccc2n1 the results were MbtI inh 7.9 and MenB inh -8.7.
Screening CCSc1nnc(CCNC2CCCCC2)n1C returned PV pol inh 101.0, MbtI inh -0.9, MenB inh 1.4 and PV pol inh intensity 101.0.
For CCS(=O)(=O)c1ccc2oc(SCc3nc4ccccc4s3)nc2c1 the results were PV pol inh 104.0, MbtI inh -9.1, MenB inh -13.5 and PV pol inh intensity 112.0.
For Cc1ccc(-c2csc(NC(=O)/C=C/c3ccco3)c2C(=O)O)cc1 the results were PV pol inh 100.0, MbtI inh 64.4, MenB inh -1.5 and PV pol inh intensity 93.0.
For Nc1nc(-c2ccncc2)ncc1S(=O)(=O)Cc1ccco1 the results were PV pol inh 103.0, MbtI inh 3.2, MenB inh 12.1 and PV pol inh intensity 107.0.
For O=C(/C=C/c1ccco1)N(Cc1nnc(-c2ccccc2Cl)o1)C1CC1 the results were PV pol inh 104.0, MbtI inh 11.3, MenB inh -2.4 and PV pol inh intensity 105.0.
`CCc1ccc(-c2csc3ncn(CC(N)=O)c(=O)c23)cc1` gave PV pol inh 107.0, MenB inh -10.7 and PV pol inh intensity 117.0.
`CC(C(=O)NC1CCc2ccccc21)n1nc2ccccc2n1` (stereo not drawn) gave PV pol inh 100.0, MbtI inh -17.0, MenB inh -9.2 and PV pol inh intensity 103.0.
`Clc1ccc(CCNc2ncnc3onc(-c4ccc(Cl)cc4)c23)cc1` gave PV pol inh 100.0, MbtI inh -0.3, MenB inh 9.3 and PV pol inh intensity 106.0.
For CCc1ccc(-c2nc(CN3CCC(C(=O)NCc4ccccc4Cl)CC3)c(C)o2)cc1 the results were PV pol inh 99.0, MbtI inh 0.0, MenB inh -12.8 and PV pol inh intensity 101.0.
Screening N/C(=N\C(=O)N1CCOCC1)c1ccccc1OC(F)(F)F returned PV pol inh 104.0, MbtI inh -8.0, MenB inh 0.7 and PV pol inh intensity 98.0.
For O=S(=O)(c1ccccc1C(F)(F)F)N1CCN(c2ccccc2O)CC1 the results were PV pol inh 103.0, MbtI inh -4.5, MenB inh -29.1 and PV pol inh intensity 92.0.
`COc1ccccc1N1CCN(C(=O)c2ccccc2C(F)(F)F)CC1` gave PV pol inh 100.0, MbtI inh -9.4, MenB inh -5.2 and PV pol inh intensity 101.0.
Cc1ccc(Cn2c(=O)c3ccccc3n3c(SC4CCOC4=O)nnc23)cc1 (stereo not drawn) was read as PV pol inh 110.0, MbtI inh -2.1, MenB inh -15.8 and PV pol inh intensity 112.0.
Screening CCOc1cc(/C=C2\SC(=S)N(CCCC(=O)O)C2=O)ccc1O returned PV pol inh 115.0, MbtI inh 1.4, MenB inh inactive and PV pol inh intensity 117.0.
O=C(c1ccncc1)N(Cc1cc2ccccc2[nH]c1=O)c1ccccc1 was read as PV pol inh 103.0, MbtI inh 56.8, MenB inh -27.8 and PV pol inh intensity 103.0.
Screening O=C1N=c2ccccc2=C1c1sc(=O)[nH]c1O returned PV pol inh 96.0, MbtI inh 13.7, MenB inh -253.5 and PV pol inh intensity 103.0.
Screening COc1cccc(CC(=O)Nn2c(C)nc3ccccc3c2=O)c1 returned PV pol inh 105.0, MbtI inh -11.0, MenB inh -15.7 and PV pol inh intensity 108.0.
`CCOC(=O)CSc1nc(-c2cccnc2)nn1C(=O)c1ccccc1` gave PV pol inh 107.0, MbtI inh -9.8, MenB inh -13.1 and PV pol inh intensity 102.0.
Screening CC(C)OC(=O)c1cc(=O)[nH]c2ccccc12 returned PV pol inh 101.0, MbtI inh 25.8, MenB inh -34.3 and PV pol inh intensity 99.0.
For O=C(NCC1CCCO1)c1csc2c1CCCC2 (stereo not drawn) the results were PV pol inh 102.0, MbtI inh -3.9, MenB inh 9.9 and PV pol inh intensity 104.0.
Screening CNc1ccc(OC(F)F)cc1C(=O)c1ccccc1 returned PV pol inh 101.0, MbtI inh -7.5, MenB inh -29.6 and PV pol inh intensity 101.0.
Screening CC1CCOC2(CCC(C(C)(C)C)CC2)O1 (stereo not drawn) returned PV pol inh 99.0, MbtI inh 4.8, MenB inh 2.6 and PV pol inh intensity 100.0.
For NC(=S)c1cccs1 the results were PV pol inh 103.0, MbtI inh 22.0, MenB inh -26.0 and PV pol inh intensity 107.0.
Screening CCOc1ccc2c(c1)s/c(=N\C(=S)NC(=O)CN1C(=O)CCC1=O)n2C returned PV pol inh 100.0, MbtI inh 3.5, MenB inh -38.2 and PV pol inh intensity 100.0.
CN1c2ccccc2C(=O)/C(=N\Nc2ccccc2Cl)S1(=O)=O was read as PV pol inh 101.0, MbtI inh -39.4, MenB inh -1.8 and PV pol inh intensity 100.0.
CC(=O)Nc1ccc(NC(=O)[C@@H]2CCCC[C@@H]2C(=O)O)cc1 was read as PV pol inh 104.0, MbtI inh 31.3, MenB inh -12.5 and PV pol inh intensity 102.0.
Screening Cc1ccccc1NS(=O)(=O)c1ccc(-n2cnnn2)cc1 returned PV pol inh 101.0, MbtI inh -6.8, MenB inh -2.5 and PV pol inh intensity 101.0.
`Nc1nnc(CCN2C(=O)CSC2=O)s1` gave PV pol inh 98.0, MbtI inh 47.5, MenB inh 25.3 and PV pol inh intensity 100.0.
Screening COC(=O)N/N=C/c1cc(C)n(-c2ccccc2)c1C returned PV pol inh 102.0, MbtI inh 15.6, MenB inh 3.1 and PV pol inh intensity 103.0.
Screening O=C(Nc1ccc(C(=O)NCCCN2CCCCC2)cc1)C1=CSCCO1 returned PV pol inh 100.0, MbtI inh -2.4, MenB inh -20.1 and PV pol inh intensity 102.0.
Screening COc1ccc(C(=O)c2oc3ccccc3c2N)cc1 returned PV pol inh 103.0, MbtI inh -4.7, MenB inh -64.1 and PV pol inh intensity 103.0.
For COc1ccccc1CCn1cc(C#N)c(=O)[nH]c1=O the results were PV pol inh 99.0, MbtI inh -6.8, MenB inh 1.5 and PV pol inh intensity 100.0.
Screening O=C(Nc1ccccc1C(=O)N1CCOCC1)c1ccccc1 returned PV pol inh 103.0, MbtI inh 7.5, MenB inh -7.6 and PV pol inh intensity 99.0.
For NC(=O)C1CCN(C(=O)c2ccc3c(=O)n4c(nc3c2)CCCC4)CC1 the results were PV pol inh 101.0, MbtI inh -14.9, MenB inh -6.8 and PV pol inh intensity 104.0.

Grouped by structure, those above containing a cyano group (five)
For N#CC1=C(N)OC2=C(C(=O)CCC2)C1c1cc2cc3c(cc2nc1Cl)OCO3 (stereo not drawn) the results were PV pol inh 100.0, MbtI inh 2.2, MenB inh 0.0 and PV pol inh intensity 103.0.
Screening CCOC(=O)c1sc(-c2ccc(C)cc2)c(C#N)c1C returned PV pol inh 100.0, MbtI inh 79.7, MenB inh -53.6 and PV pol inh intensity 95.0.
Screening Cn1cc(/C=C(\C#N)C(=O)OC2CCCCC2)c2ccccc21 returned PV pol inh 103.0, MbtI inh 2.5, MenB inh -72.4 and PV pol inh intensity 102.0.
`Cc1cc(NC=C(C#N)C#N)no1` gave PV pol inh 105.0, MbtI inh 25.0, MenB inh -34.5 and PV pol inh intensity 107.0.
For COc1ccccc1CCn1cc(C#N)c(=O)[nH]c1=O the results were PV pol inh 99.0, MbtI inh -6.8, MenB inh 1.5 and PV pol inh intensity 100.0.

Screening data (PubChem BioAssay)
